HTT promoter inh: HTT promoter inhibition | Potency, µM (top dose mostly 57.5 µM), without a hit: at the highest dose activity change, negative = inhibition, most hits filed as inhibitors | 48,000 compounds, 0.93% hits | AID 1508623 | HEK293 HTT promoter firefly luciferase reporter (activity 0% = vehicle and -100% = no light), 24 h; active = well fitted inhibition curve with a large enough effect; inconclusive = small, poorly fitted or top-dose-only effect; inactive = no such curve, though single readings can be large or run the other way; also: nearly all actives have a fitted effect of over 50% in size
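HEK293 Fluc reporter, 2,500 cells/well, 24 h pre-culture; cpds up to 57.5 uM final, 24 h 37 degrees C; Dual-Glo, 10 min RT; normalized vehicle = 0%, zero RLU = -100%.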
PMP22 txn prim: modulators of PMP22 gene transcription in S16 Schwann cells. S16 Pmp22-F2sN Schwann cells (luciferase reporters placed in the Pmp22 gene), FLuc/NLuc coincidence luminescence, 24 h. Potency, µM (series often up to 57.5 µM), for inactives: at the highest dose activity change, negative = inhibition, most hits filed as inhibitors. 43,000 compounds, 2% hits. AID 1508649; active = clear falling dose curves in both reporters; inconclusive = both reporters move, but less clearly or upward; inactive = either reporter flat; the % is the NLuc reporter signal; also: % is scaled to controls: 0 for no effect and ±100 for the full control effect; some results filed as inactive show a strong effect at the top dose
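S16 Schwann cells carrying FLuc/NLuc coincidence reporter in the Pmp22 3' UTR treated with compound 24 h at 37C; FLuc then NLuc luminescence read sequentially by dual-luciferase reagents.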
Numbers without * were called inactive; u = inconclusive; x = no result given; [ ] = remark or other dose. Potency is read from the fitted curve at half-maximal effect.

SMILES | HTT promoter inh | PMP22 txn prim
CCC(C)NC(=O)c1ccc2nc(Cc3ccc(OC)cc3)oc2c1 (stereo not drawn) | -21% | 13%
COc1ccc(Cl)cc1NC(=O)CSc1nc(-c2ccccc2)c2ccccc2n1 | -5% | -11%
CCc1ccc(C2CC(=O)Oc3c2c(=O)n(C)c2ccccc32)cc1 (stereo not drawn) | -17% | -10%
COc1ccc(CC(=O)NCC(c2cccs2)S(=O)(=O)c2ccc(F)cc2)cc1 (stereo not drawn) | -20% | -5%
Cc1ccc(C(C)C)c(OC(C)C(=O)NCC2(N(C)C)CCCCC2)c1 (stereo not drawn) | -15% | u
Cc1ccc(CSC2=Nc3ccccc3C3=NC(CC(=O)NC4CCCCC4)C(=O)N23)c(C)c1 (stereo not drawn) | -2% | 5%
COc1ccc(NC(=O)c2nnn(Cc3nc(-c4cc(OC)c(OC)c(OC)c4)oc3C)c2C)cc1Cl | -17% | -7%
CCOc1cc(C(=O)Nc2ccc(-c3nnc4n3CCCCC4)cc2)cc(OCC)c1OCC | 5% | 36%
CC(C)c1ccc(OCC(=O)Nc2c(C(=O)c3ccc(F)cc3)oc3ccccc23)cc1 | 16% | 1%
O=C(NCCCN1CCN(c2ccccc2F)CC1)C1COc2ccccc2C1 (stereo not drawn) | -13% | -22%
CCCN1CCN(CC2=C(C(=O)OCC)C(c3ccc(Cl)cc3)NC(=O)N2)CC1 (stereo not drawn) | -4% | -58%
CCOC(=O)c1c(C)[nH]c(CCC(=O)Nc2cc(C)cc(C)c2)c1C | -25% | -15%
CCNC(=O)[C@@H]1CCCN1C(=O)[C@H](CCCN=C(N)N)NC(=O)[C@H](CC(C)C)NC(=O)CNC(=O)[C@H](Cc1ccc(O)cc1)NC(=O)[C@H](CO)NC(=O)[C@H](Cc1c[nH]c2ccccc12)NC(=O)[C@H](Cc1cnc[nH]1)NC(=O)[C@@H]1CCC(=O)N1 | -5% | x
Cc1ccc(C)c(Nc2nc3c(S(=O)(=O)c4ccc(C(C)C)cc4)nnn3c3ccsc23)c1 | u | u
Nc1nc(F)nc2c1ncn2[C@@H]1O[C@H](COP(=O)(O)O)[C@@H](O)[C@H]1O | 27% | x
CCc1ccc(NS(=O)(=O)c2ccc3[nH]cc(C(=O)N4CCCCCC4)c(=O)c3c2)cc1 | 21% | 8%
COc1ccc(CN(C)c2ccc(-c3nc(C)no3)cc2[N+](=O)[O-])cc1 | u | u
COc1cc(CN(C(=O)COc2ccc(Br)cc2)c2ccccn2)cc(OC)c1OC | 32µM* | u
Cc1ccccc1OCC(=O)Nc1sc2c(c1C(=O)OC(C)C)CCCC2 | -2% | -9%
O=C(Nc1ccc(F)c(Cl)c1)C1CCN(C(=O)c2ccc(F)cc2)CC1 | -19% | -19%

Of the compounds above, these contain a Cl atom:
SMILES | HTT promoter inh | PMP22 txn prim
COc1ccc(Cl)cc1NC(=O)CSc1nc(-c2ccccc2)c2ccccc2n1 | -5% | -11%
COc1ccc(NC(=O)c2nnn(Cc3nc(-c4cc(OC)c(OC)c(OC)c4)oc3C)c2C)cc1Cl | -17% | -7%
CCCN1CCN(CC2=C(C(=O)OCC)C(c3ccc(Cl)cc3)NC(=O)N2)CC1 (stereo not drawn) | -4% | -58%
O=C(Nc1ccc(F)c(Cl)c1)C1CCN(C(=O)c2ccc(F)cc2)CC1 | -19% | -19%

Other structures follow:
SMILES | HTT promoter inh | PMP22 txn prim
CC1CCN(S(=O)(=O)c2ccc3c(ccc(=O)n3CC(=O)Nc3cccc(F)c3)c2)CC1 | u | -25%
COc1ccc(CCC(C)=O)cc1 | -2% | x
COc1ccc(CNC(=O)c2cc3c(=O)n(Cc4ccc(OC)cc4)ccc3nc2C)cc1 | u | -9%
COc1cc(NC(=O)c2nc(-c3ccc(Cl)cc3)n3c2CCCCC3)cc(OC)c1OC | u | 20%
COc1ccc(N(C)C(=O)CCn2cnc3onc(-c4ccc(F)cc4)c3c2=O)c(OC)c1 | -23% | -11%
COCCCNC(=O)CSc1nc(-c2ccccc2)[nH]c1-c1ccc(C)cc1 | -25% | -6%
CCCCN1CCc2nc(N3CCN(C)CC3)ncc2C1 | -5% | -5%
Cc1ccc(CN2CCSc3ccc(C(=O)NCC(C)c4ccccc4)cc32)cc1 (stereo not drawn) | 10% | -22%
O=C(c1ccccc1)c1ccccc1NC(=O)c1ccccc1C(=O)O | -16% | 6%
COc1cccc(NC(=O)C2CCN(S(=O)(=O)c3cccc4nonc34)CC2)c1 | -7% | -9%
CCc1nnc(SCc2cccc(Cl)c2)c2cc3sccc3n12 | -25% | u
Cc1ccc2[nH]c(CSc3nnc(NC(=O)c4ccc(Cl)cc4)s3)cc(=O)c2c1 | 16% | 1%
Cc1ccc(OCC(=O)Nc2ccc(Cl)c(-c3nc4ncccc4o3)c2)c(C)c1 | 7% | -58%
COc1cc(CNC(=O)c2cc3n(n2)CCCN(Cc2cccc(F)c2)C3=O)cc(OC)c1OC | u | -10%
Clc1ccc(CN2CCC(CNc3ncnc4onc(-c5ccc(Cl)cc5)c34)CC2)cc1 | u | u
Fc1ccc(Nc2c3c(nc4nncn24)CCC3)cc1 | -17% | u
Cc1cccc(C(=O)Nc2ccc(-c3nc4ccccc4s3)c(C)c2)c1 | 32%[activator] | 4%
Oc1ccc(NCc2ccccc2OCc2ccc(Cl)cc2)cc1 | 21% | u
Cc1ccc(-n2ccnc(NCc3ccccc3)c2=O)cc1C | u | 23%
COc1ccc(CCNC(=O)c2ccc(Nc3nc4ccccc4n4nnnc34)cc2)cc1OC | -15% | -13%
Cc1c(Cl)cccc1NC(=O)CSc1nc2ncccc2o1 | -17% | -3%
CC(C)N(Cc1ccccc1)C(=O)Cn1ncc2c3ccccc3n(Cc3ccccc3)c2c1=O | -20% | -27%
O=C(NCCc1ccccc1)c1ccc(CSc2nc3cccnc3n2Cc2ccccc2F)cc1 | -23% | u
COc1ccc(C(=O)n2nc(-c3ccco3)nc2NCc2cccs2)cc1OC | 20% | -20%
CCC(=O)N1CCc2cc(S(=O)(=O)CCC(=O)Nc3cc(Cl)ccc3OC)ccc21 | 1% | u
Cc1cc(C)c2c(-n3cccc3)c(C(=O)NCCCN3CCCCC3)sc2n1 | -4% | u
Cc1nn(CC(=O)N2CCN(c3ccccc3)CC2)c(=O)c2cccn12 | 2% | -5%
COc1cccc2sc(N3CCN(C(=O)CS(=O)(=O)c4ccc(Cl)cc4)CC3)nc12 | u | u
CCOc1ccccc1CNc1ccc2cc(S(=O)(=O)N3CCC(C)CC3)ccc2n1 | -29% | u
CC(C)NS(=O)(=O)c1ccc2nc(NC(=O)c3cncc(Br)c3)sc2c1 | -24% | 17%
CCc1cccc(C)c1NC(=O)C(C)Sc1nc2c(c(=O)[nH]1)CCCC2 (stereo not drawn) | u | -6%
COc1ccc(-c2nc(CSCC(=O)N3CCN(c4ccccc4)CC3)c(C)o2)cc1 | u | u
CCc1cnc2c(c1SCC(=O)c1ccc(OC)cc1)c(=O)n(C)c(=O)n2C | -23% | u
CCN(CC)c1ccc2cc(-c3nc(-c4ccccc4)no3)c(=O)oc2c1 | 20% | -21%
COC(=O)c1c(SCC(=O)Nc2ccccc2OC)[nH]c2ccccc2c1=O | -12% | u
COc1cccc(Cn2c(=O)n(CC3CCC(C(=O)NC(C)C)CC3)c(=O)c3sccc32)c1 (stereo not drawn) | 5% | -9%
COc1ccccc1OC(C)C(=O)Nc1c(C(=O)c2ccc(Cl)cc2)oc2ccccc12 (stereo not drawn) | -10% | -4%
COc1ccc(CNc2ncnc3c2c(-c2ccccc2)cn3-c2cccc(C)c2)cc1 | u | -24%
Cc1cc(C(=O)N2CCN(c3cccc(C)c3C)CC2)c2c(C)nn(-c3ccccc3)c2n1 | -13% | -11%
Cc1ccccc1C(=O)Nc1sc2c(c1C(=O)NCc1ccco1)CCC(C(C)(C)C)C2 (stereo not drawn) | -11% | -7%
CCc1ccc(NCc2cc3cc4c(cc3n(CC(=O)Nc3ccccc3C)c2=O)OCCO4)cc1 | -16% | u
O=C(Nc1cccc(C(F)(F)F)c1)c1ccc(F)c(S(=O)(=O)N2CCc3ccccc3C2)c1 | 28µM* | -21%
O=c1c(N2CCN(c3cccc(Cl)c3)CC2)csc2ccccc12 | -24% | u
COc1ccc(N2CCN(S(=O)(=O)CCNC(=O)COc3ccccc3F)CC2)cc1 | -21% | 1%
CN(C)CCCOc1nn(Cc2ccccc2)c2ccccc12 | -22% | x
Cc1cccc(OCC(=O)N(Cc2ccc(N(C)C)cc2)Cc2ccco2)c1C | u | u
Cn1c(CN2CCOCC2)nc2cc(NC(=O)c3ccccc3[N+](=O)[O-])ccc21 | -20% | 10%
COc1ccc(Cl)cc1NC(=O)CCc1nc(-c2ccccc2F)no1 | u | -3%
COc1ccc(Br)cc1[C@@H]1Nc2ccc(C(=O)O)cc2[C@@H]2C=CC[C@@H]21 | -17% | u
Cc1ccc(-c2cc(NC(=O)COc3ccc(Cl)cc3C)on2)cc1 | 16% | -7%
Cc1ccc(NC(=O)Cn2cc(S(=O)(=O)Cc3cccc(Cl)c3)c3ccccc32)cc1C | u | -12%
COc1ccc(Cl)cc1NC(=O)COC(=O)CC(C)(C)CC1=NS(=O)(=O)c2ccccc2N1 | u | u
COc1ccc(C(=O)Nc2c(C(=O)c3ccccc3)oc3ccccc23)cc1 | 5% | -28%
Cc1cccc2c(=O)cc(CSc3ccccc3NC(=O)C(C)C)[nH]c12 | 6% | 4%
COc1ccc(/C=C/C(=O)Nc2nc3n(n2)C(c2ccccc2)C=C(c2ccc(Cl)cc2)N3)cc1 (stereo not drawn) | u | -15%
CCOC(=O)C1CCN(S(=O)(=O)c2cc3c4c(c2)C(C)C(=O)N4CCC3)CC1 (stereo not drawn) | -20% | -17%
CC(=O)N1CCN(c2ccc(O)cc2)CC1 | 4% | x
Cc1ccc(C(=O)N2CCc3cc(CNC(=O)c4ccnn4C)ccc32)cc1 | u | u
CCCc1nn2c(=O)cc(COC(=O)c3ccccc3NC(=O)c3ccc(Cl)cc3)nc2s1 | 10% | -14%
COc1ccccc1C(=O)Nc1nc2nc(C)c(Cc3ccccc3)c(=O)n2[nH]1 | -4% | -10%

The list goes on, overlapping the part above by five compounds.
SMILES | HTT promoter inh | PMP22 txn prim
CCOC(=O)C1CCN(S(=O)(=O)c2cc3c4c(c2)C(C)C(=O)N4CCC3)CC1 (stereo not drawn) | -20% | -17%
CC(=O)N1CCN(c2ccc(O)cc2)CC1 | 4% | x
Cc1ccc(C(=O)N2CCc3cc(CNC(=O)c4ccnn4C)ccc32)cc1 | u | u
CCCc1nn2c(=O)cc(COC(=O)c3ccccc3NC(=O)c3ccc(Cl)cc3)nc2s1 | 10% | -14%
COc1ccccc1C(=O)Nc1nc2nc(C)c(Cc3ccccc3)c(=O)n2[nH]1 | -4% | -10%
Cc1cccc(CN2C(=O)c3ccccc3Sc3ccc(C(=O)NCCc4ccccc4)cc32)c1 | -24% | -11%
Nc1ccc(C(=O)OCC(O)CO)cc1 (stereo not drawn) | 1% | x
COc1ccccc1CCNC(=O)C(=O)NCC(c1ccco1)S(=O)(=O)c1ccc(F)cc1 (stereo not drawn) | u | -40%
O=C(CSc1nccn1Cc1ccc(Cl)cc1)Nc1ccc2c(c1)OCCO2 | -16% | -20%
CCCCOc1ccc(CNC(=O)c2ccc3c(c2)N(C)C(=O)C2CCCCN32)cc1 (stereo not drawn) | -28% | -34%
CCC(=O)O[C@H]1[C@H](O[C@@H]2[C@@H](C)[C@H](O[C@H]3C[C@@](C)(OC)[C@@H](O)[C@H](C)O3)[C@@H](C)C(=O)O[C@H](CC)[C@@](C)(O)[C@H](O)[C@@H](C)C(=O)[C@H](C)C[C@@]2(C)O)O[C@H](C)C[C@@H]1N(C)C | 0% | x
CCNc1nc(NC(C)CC)nc(Oc2ccc(OCC)nn2)n1 (stereo not drawn) | 28% | u
COc1ccc(Cn2c(SCC(=O)NCc3ccccc3)nc3ccccc32)cc1 | -38% | u
O=C(NCc1ccccn1)c1nn(-c2ccccc2F)nc1CO | u | -27%
COc1ccc(CCNC(=O)c2cc(-c3ccc(Cl)cc3)on2)cc1OC | 19% | 12%
CCOc1ccc(-c2nnc(SCC(=O)Oc3ccccc3)o2)cc1 | 2.8µM* | -10%
CCOCCCn1c(=N)c(S(=O)(=O)c2ccc(C)cc2)cc2c(=O)n3ccccc3nc21 | 1% | u
CCOc1ccc(NC(=O)CCc2nc3cccnc3n2-c2ccccc2)cc1 | u | -2%

One compound at a time (already shown):
`O=C(NCc1ccccn1)c1nn(-c2ccccc2F)nc1CO` in the list: HTT promoter inh: u; PMP22 txn prim: -27%
`Cc1cccc(CN2C(=O)c3ccccc3Sc3ccc(C(=O)NCCc4ccccc4)cc32)c1` in the list: HTT promoter inh: -24%; PMP22 txn prim: -11%

Screens: PubChem, National Center for Advancing Translational Sciences (NCATS)
